High-throughput results deposited in PubChem by ICCB-Longwood Screening Facility, Harvard Medical School.
BasE inh – BasE siderophore enzyme inhibitors, primary screen, biochemical, Acinetobacter baumannii ATCC 17978, fluorescence polarization | purified BasE, fluorescence polarization binding displacement | 84,000 compounds, 0.1% hits | inhibition, % (no concentration beside the values);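 active means both replicates above 25% with normal brightness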;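 further: 0% = negative plate control signal and 100% = positive plate control signal; stock transfer was 100 nL into about 30 µL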
KSHV LANA nucl – inhibitors of KSHV LANA-nucleosome binding, primary screen, biochemical, fluorescence polarization, FITC-LANA1-23, chicken nucleosomes; FITC-LANA1-23 / chicken nucleosome fluorescence polarization; stronger effect = lower value; z-score (test concentration not listed); 51,000 compounds, 0.3% hits;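 active means both repeat wells score below -2 in polarization z-score versus plate sample wells, excluding overly bright wells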;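 further: 100 nL library stock added to about 30 µL; numbers are from one replicate; some results filed as inactive read as strong as hits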
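Assay system: purified chicken nucleosomes with FITC-labelled LANA N-terminal peptide (1-23) / Probe or stimulus: 50 nM FITC-LANA1-23 probe / Compound dosing: pin-transferred compound, 100 nL / Times: compound with peptide–nucleosome mix 10–45 min at room temperature / Technique: fluorescence polarization, 480 nm excitation, 535 nm parallel and perpendicular emission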
* = called active by the depositor; nt = not tested or not shown; & = joins results of further samples. Only part of the results is shown; rates above refer to the full screens.

Below each compound: BasE inh	KSHV LANA nucl
- c1ccc(-c2nnc(SCC3COc4ccccc4O3)nc2-c2ccccc2)cc1 (stereo unspecified)
    0.1	nt
- COc1ccc(CCNS(=O)(=O)c2ccc3c(c2)CCN3C(=O)C2CCC2)cc1OC
    1.8	-0.18
- COc1ccc(-c2noc(N(C)CC(=O)N3CCN(c4cccc(Cl)c4)CC3)n2)cc1
    1.1	-0.64
- CCc1ccc(NC(=O)Cn2c(=O)cc(C)c3c(C)nn(C)c32)cc1
    -0.2	-0.25
- C[N+]12CCC(CC1)C(OC(=O)C(O)(c1ccccc1)c1ccccc1)C2 (stereo unspecified)
    -0.1&-0.2	0.055&0.019&0.4
- Oc1ccc(C=Nc2ccc(Nc3ccccc3)cc2)c(O)c1
    -49	1.9
- O=C(NCc1cccs1)c1cc(Br)cs1
    -0.5	0.8
- CCn1cc(/C=C(/C#N)c2ccccc2Cl)c2ccccc21
    2.9	-0.59
- COc1ccc(C)cc1S(=O)(=O)NCc1ccccc1
    -1.1	-0.35
- O=C(CN(Cc1ccco1)S(=O)(=O)/C=C/c1ccccc1)Nc1ccc(N2CCOCC2)cc1
    1.9	nt
- CNC(=O)Cc1cc(=O)[nH]c(=O)[nH]1
    1.2	-1.2
- CCOc1ccc(/C=N/OCC(=O)Nc2cc(C)on2)cc1
    -1.8	nt
- CCc1ccccc1-n1nnc(C(=O)NCc2ccc3c(c2)OCO3)c1N
    -2.1	-0.23
- CNCc1ccc(Br)cc1
    2.2	nt
- Cc1nc(N2CCCCC2)c(C#N)c2c1COC(C)(C)C2
    1.1	-1.4
- O=C(Oc1cc(=O)oc2c1c(=O)n1c3c(cccc23)CC1)c1ccco1
    1.9	0.11
- O=C(c1ccccc1Cl)N1CCC(n2cccc2)CC1
    -1.0	nt
- CC(C)N(Cc1nc2ccccc2c(=O)[nH]1)C(=O)c1cc(C2CC2)nn1-c1ccccc1
    0.6	nt
- COc1ccc(CNCc2cccs2)cc1Cn1ccnc1
    -1.7	-1.8
- CC1NC(=O)NC2NC(=O)NC(C)C12 (stereo unspecified)
    0.3	-0.012
- CCCNC(=O)C(N)Cc1c[nH]c2ccccc12 (stereo unspecified)
    -0.5	0.67
- COc1ccc(OC(=O)C2CCN(c3ccc(C(F)(F)F)cn3)CC2)cc1
    3.0	-1.2
- N#CCc1ccc(C(=O)c2cccs2)s1
    nt	-0.25
- CCCc1c(C(=O)Nc2ccc3c(c2)OCCO3)cnn1-c1ccccc1
    0.1	-0.3
- CCn1c(CNC(=O)c2ccccc2F)nnc1SCC(=O)NC1CCCCC1C (stereo unspecified)
    -0.8	0.23
- O=C(c1ccc(N2CCCC2=O)cc1)N1CCN(c2ccccc2)CC1
    -1.8	0.88
- Cc1ccccc1-n1nc2c(c1NC(=O)c1ccc(S(=O)(=O)N3CCOCC3)cc1)CS(=O)C2 (stereo unspecified)
    1.1	-0.052
- O=C(O)c1cccc(NS(=O)(=O)c2ccc3c(c2)OCCCO3)c1
    0.9	nt
- COC(=O)c1cccc(NS(=O)(=O)c2ccc(OC)c(Cl)c2)c1C
    0.8	-0.46
- CC1(C)CSC(=NCc2ccccc2)N1C(=O)CN1C(=O)C2C3C=CC(C3)C2C1=O (stereo unspecified)
    -0.9	nt

Complete entries as entered above. Order of screens: BasE inh	KSHV LANA nucl
COC(=O)c1cccc(NS(=O)(=O)c2ccc(OC)c(Cl)c2)c1C is listed as 0.8	-0.46
O=C(c1ccc(N2CCCC2=O)cc1)N1CCN(c2ccccc2)CC1 is listed as -1.8	0.88

New compounds follow:
Below each compound: BasE inh	KSHV LANA nucl
- CN(Cc1ccc(OC(F)F)cc1)S(=O)(=O)c1ccccc1C#N
    0.8	nt
- COC(=O)Cn1ncc(N2C3CC(CC(C)(C)C3)C2C)c(Cl)c1=O (stereo unspecified)
    -1.3	nt
- O=C(Cc1cccs1)NCCc1cnc[nH]1
    1.0	1.2
- COc1ccccc1C(=O)COC(=O)c1ccccc1O
    1.2	nt
- Cn1cc(C(=O)O)c(-c2ccc3c(c2)OCCCO3)n1
    4.2	nt
- CC(OC(=O)c1ccccc1OC(F)F)C(=O)N1CCCc2ccccc21 (stereo unspecified)
    1.6	nt
- N#C/C(=C\Nc1cc(C(F)(F)F)cc(C(F)(F)F)c1)S(=O)(=O)Cc1ccc(Cl)cc1
    -0.8	nt
- FC(F)(F)Oc1ccc(NC2=NCCC2)cc1
    1.8	nt
- O=c1cc(O)n(C2CCCC2)c(=S)[nH]1
    1.0	nt
- CC(OC(=O)c1cccc(C(F)(F)F)c1)C(N)=O (stereo unspecified)
    2.5	nt
- COc1cc(/C=C2\Oc3ccccc3C2O)cc(Cl)c1OC (stereo unspecified)
    -0.5	1.6
- CC(=O)Nc1ccc(C(=O)N/N=C/c2ccc(C)o2)cc1
    0.1	-0.64
- CC(=O)NS(=O)(=O)c1ccc(N=Cc2ccco2)cc1
    2.2	nt
- CN1NC(=O)CC1C(=O)Nc1sc2c(c1C#N)CCCC2 (stereo unspecified)
    1.7	0.31
- Cc1ccc2nc(COC(=O)CSc3ncnc4c3oc3ccccc34)cc(=O)n2c1
    2.7	nt
- FC(F)(F)c1cc(/C=C/c2noc(CN3CCCCCC3)n2)cc(C(F)(F)F)c1
    nt	0.4
- CN(C)S(=O)(=O)c1ccc2nnn(OCC(=O)NCCC3=CCCCC3)c2c1
    -0.3	nt
- Cc1cc(C)nc(NC(=O)COc2ccc(Br)cc2)n1
    0.8	-1.6
- Cc1cccc(C)c1NC(=O)CNCC(=O)Nc1c(C)cccc1C
    3.0	nt
- Cc1cc(-n2c(C)cc(C(=O)COC(=O)C3CCCC3)c2C)no1
    -1.0	nt
- O=C1C2C3C=CC(C3)C2C(=O)N1CCN1CCN(S(=O)(=O)c2ccc(Br)cc2)CC1 (stereo unspecified)
    2.7	-0.94
- COC(=O)c1nn(-c2ccc(-c3ccccc3)cc2)cc1O
    1.5	nt
- Nc1nc(-c2ccco2)nn1C(=O)c1ccc(Cl)cc1Cl
    -0.1	0.17
- CCOC(=O)c1ccc2nc(C34CC5CC(CC(C5)C3)C4)ccc2c1
    0.7	nt
- CC(=O)Oc1cccc(C(=O)NC2CCCCC2)c1
    -2.8	-0.022
- Cc1cc(C)nc(N(C#N)CC(=O)c2ccccc2)n1
    -4.5	2
- CSc1nc(C)nc(N/C=C(\C#N)S(=O)(=O)c2ccc(C)cc2)n1
    -0.7	nt
- COc1cc(C)ccc1OCCn1cccc1/C=C1\C(=N)N2N=C(N3CCCC3)SC2=NC1=O
    -0.4	-0.85
- c1ccc(CN2CCN(Cc3ccccc3)C2c2ccc[nH]2)cc1
    -1.5	0.16
- COc1ccc(S(=O)(=O)N2CCC(NC(=O)c3ccccc3)CC2)cc1
    -2.1	3.7
- Cc1ccc(S(=O)(=O)N/N=C/c2c(O)[nH]c(=O)[nH]c2=O)cc1
    1.8	nt
- CCOC(=O)C1CCCN(S(=O)(=O)c2ccc(Cl)cc2)C1 (stereo unspecified)
    2.0	-1.1
- COC(=O)C1(c2ccc(OC)c(OC)c2)CCCC1
    -2.9	-0.17
- Cc1nc(N)[nH]c(=O)c1Oc1cccc(C(F)(F)F)c1
    0.8	0.17
- COC(=O)c1ccc(CSc2ncnc3c2cnn3-c2ccc(C)cc2C)o1
    -1.1	0.72
- Cc1onc(-c2ccccc2)c1CNC(=O)Nc1ccccc1
    0.4	nt
- CC(CO)(CO)NC(=O)NC1CCCCC1
    -1.6	-0.22
- CC(=O)Nc1ccc(-n2cc(-c3ccccc3)[nH]c2=S)cc1
    2.9	nt
- CS(=O)(=NS(=O)(=O)c1ccc(OC(F)(F)F)cc1)c1ccc(Cl)cc1 (stereo unspecified)
    -0.4	nt
- CCOC(=O)c1cnc2cc(-c3ccc(C)cc3)nn2c1C
    -1.0	-0.066
- Cc1cc2ncn(C(=O)CCCOc3ccccc3)c2cc1C
    0.0	nt
- N#CC1=C(N)N(c2ccccc2)C(=O)C1
    -0.5	nt
- CC1Cc2ccccc2N1C(=O)Cn1nc(-c2nccc3ccccc23)oc1=O (stereo unspecified)
    -0.4	-0.34
- CCCNC(=O)CCc1nc(-c2ccccc2Cl)no1
    -1.2	0.72
- O=C(NCc1ccccc1Cl)C1CCN(C(=O)c2ccco2)CC1
    nt	-0.27
- C/C(=C/C(=O)C(F)(F)F)N1CCN(c2ccccn2)CC1
    0.5	nt
- FC(F)(F)Oc1ccc(-c2nnc(-c3cccnc3)o2)cc1
    1.9	nt
- CCc1ccc(NC(=S)N(CCCN2CCCCC2)Cc2ccco2)cc1
    -3.6	0.55
- CC(C)(C)NC(=O)NCc1ccco1
    0.4	-0.7
- Cn1ccc(/C=C2/CCC/C(=C\c3ccn(C)n3)C2=O)n1
    0.9	nt

The listing continues.
Below each compound: BasE inh	KSHV LANA nucl
- Cc1noc(/C=C/N2CCOCC2)c1S(=O)(=O)N(C)CC(=O)NC1CCCCC1
    1.7	-1.1
- CCN1CCC2(CC1)OC(=O)C(C)=C2C(=O)Nc1ccc(F)cc1
    -3.2	-0.25
- Cc1ccc(Cc2cc(C)n[nH]c2=O)cc1
    1.1	nt
- Cc1c(C)n(CCN(C)C)c2ccc(C(=O)OCCN(C)C)cc12
    3.4	nt
- Cc1ccccc1Nc1nc(N)nc(CN2CCC(C)CC2)n1
    0.4	nt
- CC1C(=O)C(C)C(c2ccc(N(C)C)cc2)NC1c1ccc(N(C)C)cc1 (stereo unspecified)
    2.9	nt
- N#Cc1c2c(c(N3CCCCC3)n3c1nc1ccccc13)CCCC2
    -8.5	0.27
- N#Cc1c2c(c(N3CCCC3)[nH]c1=S)CCCC2
    9.5	nt
- CC(C)(C)C(=O)CC(Nc1ccccc1)c1ccc(Cl)cc1 (stereo unspecified)
    1.6	nt
- CCC(Sc1nnc2c3ccccc3n(C(C)C)c2n1)C(=O)Nc1nc2ccccc2s1 (stereo unspecified)
    0.3	0.85
- Cc1cc(C)n(-c2cccc(Cl)c2C#N)n1
    3.8	0.4
- COCC(=O)N1CCC(c2nc3ccccc3[nH]2)CC1
    0.6	-0.034
- Cc1cc(NC(=O)c2ccc3nonc3c2)on1
    2.5	nt
- O=C(Nc1ccccc1N1CCOCC1)c1cc(=O)[nH]c2ccccc12
    0.9	nt
- CCOc1ccccc1OCC(=O)Nc1ccc(S(=O)(=O)Nc2nc(C)cc(C)n2)cc1
    -0.1	-0.11
- O=C(Cc1ncc[nH]1)c1ccccc1
    -0.9	nt
- CC(CC(=O)NCCc1ccccc1)n1cccn1 (stereo unspecified)
    1.1	-0.64
- COc1ccccc1-c1ccc(SCC#N)nn1
    -3.2	0.58
- Cc1ccc2[nH]c(-c3ccccc3)c(CN(C)C)c(=O)c2c1
    -5.7	0.62
- O=C(Nc1ccc(F)cc1)c1cnccc1C(F)(F)F
    0.5	nt
- CC(C)CCN1CC(C)C(O)(c2ccccc2)CC1C (stereo unspecified)
    1.9	-0.093
- O=c1c2c3c(sc2[nH]c(=S)n1Cc1ccco1)CCCC3
    2.3	nt
- O=C(Nc1ccccc1)C1CCCN1C1CCCCC1 (stereo unspecified)
    -1.6	0.94
- COC(=O)c1cc2c(ccc3ccccc32)oc1=O
    -1.7	0.72
- CCN(C(=O)CSc1nc2cc(C(=O)OC)ccc2c(=O)n1CCN1CCOCC1)c1cccc(C)c1
    1.2	0.62
- CCNC(=S)N1CCC(NC(=O)c2ccccc2)CC1
    -3.0	-1.2
- Cc1ccccc1OCC1=NN2C(=N)/C(=C\c3cccn3-c3ccccc3C)C(=O)N=C2S1
    -2.9	-1.1
- O=C(Nc1cnc2ccccn2c1=O)NC1CCCC1
    0.7	-0.94
- CCOC(=O)N1CCN(c2ccc(S(=O)(=O)N(Cc3ccccc3)Cc3ccccc3)cn2)CC1
    1.4	nt
- CCOc1ccc(N2CC(=O)SC2=S)cc1
    0.7	-0.4

Part of the list above in order of number of heavy atoms, smallest number first.
Below each compound: BasE inh	KSHV LANA nucl
- O=c1c2c3c(sc2[nH]c(=S)n1Cc1ccco1)CCCC3
    2.3	nt
- CCOC(=O)N1CCN(c2ccc(S(=O)(=O)N(Cc3ccccc3)Cc3ccccc3)cn2)CC1
    1.4	nt
- CCN(C(=O)CSc1nc2cc(C(=O)OC)ccc2c(=O)n1CCN1CCOCC1)c1cccc(C)c1
    1.2	0.62

The results go on.
Below each compound: BasE inh	KSHV LANA nucl
- Cc1sc(-c2c(F)cccc2F)nc1O
    -0.9	0.42
- CCC1(C)NC(=O)N(/N=C/c2cn(-c3ccccc3)nc2-c2cc3ccccc3o2)C1=O (stereo unspecified)
    -1.3	nt
- O=C(c1nn(Cc2ccccc2)c(=O)c2ccccc12)N1CCN(Cc2ccc3c(c2)OCO3)CC1
    -3.4	nt
- O=c1c2ccccc2[nH]c(=S)n1CCCn1ccnc1
    0.7	2.1
- O=C(NCCc1ccccc1)C(=S)N1CCCC1
    0.6	0.25
- CN(C)c1ccc(C2=NCCCN2)c(SCc2cccc(C(F)(F)F)c2)c1
    nt	0.6
- CC(C)(C)C1CCC(=NNC(=O)Cc2cn3ccsc3n2)CC1 (stereo unspecified)
    0.7	nt
- c1ccc2c(NC3CCCC3)nc(N3CCNCC3)nc2c1
    -4.8	0.43
- C=CC[N+]1(CC#Cc2ccccc2)CCOCC1
    1.1	nt
- CCOc1cc(CNCc2ccco2)ccc1OCc1ccccc1
    -0.6	-0.61
- CN(C)c1nc(C#N)nc(N2CCOCC2)n1
    -1.8	0.37
- Cc1cccc(Cl)c1NC(=O)N1CCCN(c2ncccc2C(F)(F)F)CC1
    -0.1	nt
